BmaI1 – BmaI1 acyl-homoserine lactone synthase inhibition – biochemical, fluorescence intensity, with counterscreen (AID 720554); BmaI1 enzyme assay, fluorescence intensity; hits give high values; test concentration not given here; a few actives read low; strong numbers were not always called active; 0.4% of 12,000 active; inhibition, %;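 active = both replicates within 2 robust z-scores of the inhibited control and a quiet counterscreen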;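 also: 0% = uninhibited enzyme and 100% = inhibited control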
BmaI1 counterscreen – second read-out of BmaI1, no call of its own (marks repeat the call); inhibition, %; measured here: counterscreen; design of the counterscreen not given here;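 first of two replicates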
* hit, by the source's call. These rows are one share of the data. The share of hits here may be higher or lower than overall.

SMILES	BmaI1	BmaI1 counterscreen
Cc1c(-c2ccccc2)sc2ncnc(Sc3nnc(C4CC4)o3)c12	12	12
CCOc1ccc(-n2c(SCC(=O)OC3CCS(=O)(=O)C3)nc3ccccc32)cc1 (centres undefined)	4	1
O=C1NC(=O)C(C2CCS(=O)(=O)C2)C(=O)N1 (centres undefined)	7	-5
COc1ccc(CNC(=O)C(C)N2CCC(c3nc4ccccc4o3)CC2)cc1 (centres undefined)	11	0
CC12CCC(CC1=NNc1nc3ccccc3o1)C2(C)C (centres undefined)	52	20
CCN(C(=O)c1cncn1-c1ccc(F)cc1)c1nc2c(C)cccc2s1	10	-2
Cc1ccc(CN(C)C(=O)CN(C)S(=O)(=O)c2ccc(Cl)cc2)o1	18	5
Cc1cccc(CN2CCNCC2)c1	6	8
CN(Cc1ccccc1)C(=O)COC(=O)C1=NNC(=O)CC1	10	8
Cc1cc(=O)oc2cc(NC(=O)C3CCC(=O)N3)ccc12 (centres undefined)	-26	-26
OCc1cnn(-c2ccccc2)c1	8	4
Cc1cc(C)c2[nH]c(O)c(N=NC(=S)NCC3CCCO3)c2c1 (centres undefined)	5	-4
Cc1nc2c3ccccc3[nH]c(=O)n2n1	18	15
CCOc1ccc(-n2c(O)c(C=NCCCN3CCOCC3)c3ccccc3c2=O)cc1	10	0
CN(C(=O)CSc1nc(-c2ccccc2)cs1)C1CCS(=O)(=O)C1 (centres undefined)	14	9
O=C1OCCC1Sc1nnc(-c2ccccc2)n1-c1ccc(Cl)cc1 (centres undefined)	12	12
O=C(CN1CC(C(=O)N2CCOCC2)Oc2ccccc21)Nc1ccc2c(c1)CCC2 (centres undefined)	-1	-4
CCS(=O)(=O)N1CCc2cc(C(=O)CSc3nnc(COc4ccc(F)cc4)o3)ccc21	7	2
COc1ccc(CCNC(=O)c2ccc(-n3cncn3)cc2)cc1	12	3
CC(C)NC(=S)NNc1ncc(C(F)(F)F)cc1Cl	89*	8.0*
COc1cc(C(=O)CN(C)C2CCCCC2)cc(OC)c1OC	13	4
Cc1ccc(-c2noc(COC(=O)c3cccnc3SCC(=O)Nc3ccccc3OC(F)F)n2)cc1	8	11
Cc1sc(-c2cnn(-c3ccccc3)c2N)nc1-c1ccccc1	14	18
CNC(=O)COC(=O)c1ccccc1OC	0	6

Record cards, as listed above.
COc1ccc(CCNC(=O)c2ccc(-n3cncn3)cc2)cc1 is listed with BmaI1 = 12; BmaI1 counterscreen = 3
CC(C)NC(=S)NNc1ncc(C(F)(F)F)cc1Cl is listed with BmaI1 = 89*; BmaI1 counterscreen = 8.0*
Cc1nc2c3ccccc3[nH]c(=O)n2n1 is listed with BmaI1 = 18; BmaI1 counterscreen = 15

Carrying on.
SMILES	BmaI1	BmaI1 counterscreen
COC(=O)c1ccc(N)cc1	7	14
CN[C@@H]1C[C@@H](c2ccc(Cl)c(Cl)c2)c2ccccc21	-4	4
c1csc(-c2nnc(Sc3nc(CN4CCCCC4)nc4sc5c(c34)CCCC5)o2)c1	16	6
O=C(CSc1ccccn1)N1CCC(c2ccccc2)=N1	6	1
C=CCn1c(SCC(=O)c2ccc(Cl)s2)nnc1-c1ccncc1	14	14
COc1ccc2c(CN3c4ccccc4CC3C)cc(=O)oc2c1 (centres undefined)	18	1
O=C(CSc1ncc(C(F)(F)F)cc1Cl)c1ccc(O)cc1O	24	12
COc1ccc(C(=O)OCC(=O)NC2CC2)cc1	32	4
Cc1c(NC(=O)C(C)OC(=O)Cc2ccccc2)c(=O)n(-c2ccccc2)n1C (centres undefined)	6	-2
O=C(CSCc1nc2scc(-c3cccs3)c2c(=O)[nH]1)Nc1nc2c(s1)CCCC2	21	16
Cc1c(C#N)c2ccccn2c1C(=O)NN	63	68
CCn1c(SCC(=O)Nc2ccccc2SCC(N)=O)n[nH]c1=O	-6	-2
CCCN(C(=O)C1CC(=O)N(c2ccccc2C(C)CC)C1)C1CCS(=O)(=O)C1 (centres undefined)	-1	-2
CC(C)(C)C(=O)OC1OCCOC1OC(=O)C(C)(C)C (centres undefined)	6	0
O=C(NC(CO)C(O)c1ccc([N+](=O)[O-])cc1)C(Cl)Cl (centres undefined)	9	16
COCCn1c(SCC(=O)N2c3ccccc3CC2C)nc2ccccc2c1=O (centres undefined)	14	12
CC(C)NCC(O)COc1ccc(CCOCC2CC2)cc1 (centres undefined)	-2	0
CCOc1ccc(C(=O)NC(C(=O)NCC2CCCO2)C(C)C)cc1 (centres undefined)	-2	-4
N#Cc1ccccc1NC(=O)CN1CCN(S(=O)(=O)/C=C/c2ccccc2)CC1	1	-4
COCCN(Cc1nc2ccccc2c(=O)[nH]1)C(=O)C1=NN(c2cccc(C)c2)C(=O)CC1	16	8
O=C1NC2(CCCc3sccc32)C(=O)N1CCN1C(=O)c2ccccc2C1=O (centres undefined)	30	-3
O=C(COC(=O)Cc1cn2ccsc2n1)Nc1ccc(Br)cc1	17	8
Nc1c2c(nc3ccccc13)CCCC2	5	11
O=c1ccc(C(F)(F)F)cn1Cc1cc2c(cc1Br)OCO2	9	-4
COCCn1c(O)c(/C=N/c2c(C#N)c(C)c(C)n2C2CCCCC2)c(=O)[nH]c1=S	82	32
O=C(COC(=O)C1CCN(S(=O)(=O)c2ccc3c(c2)OCCO3)CC1)c1c[nH]c2ccccc12	12	8
CC(=O)Nc1ccc2c(COC(=O)c3ccc(S(=O)(=O)N(C)C)cc3)cc(=O)oc2c1	2	-2
CCCn1c(=O)c2ccccc2n2c(SCC(=O)NC(C)(C)C)nnc12	31	-3
CN(CC(=O)Nc1ccc(N2CCOCC2)cc1)CC(=O)Nc1cccc(Br)c1	-5	0
CN1CCN(C2=Nc3cc(F)ccc3Cc3ccccc32)CC1	10	18
O=C(O)CCN(Cc1ccccc1)S(=O)(=O)c1ccccc1Cl	12	2
Cc1ccc2nc(SCC3CCCCO3)[nH]c2c1 (centres undefined)	10	14
O=C(O)CCN1CCSC1=O	4	-3
O=C(O)CCN1C(=O)CSc2ccccc21	32	-2
Cc1cc(OC(C)C(=O)N2CCN(Cc3ccccc3)CC2)nc(C(C)C)n1 (centres undefined)	-8	-5
O=C(CSc1ccccc1)OCc1nnc(C2COc3ccccc3O2)o1 (centres undefined)	9	-5

Laid out differently: 3 of the compounds above
| SMILES | BmaI1 | BmaI1 counterscreen |
| --- | --- | --- |
| O=C(O)CCN1CCSC1=O | 4 | -3 |
| O=C(CSc1ccccc1)OCc1nnc(C2COc3ccccc3O2)o1 (centres undefined) | 9 | -5 |
| CN1CCN(C2=Nc3cc(F)ccc3Cc3ccccc32)CC1 | 10 | 18 |

Following part.
SMILES	BmaI1	BmaI1 counterscreen
CC(C)C(Sc1ccc2c(c1)OCCO2)C(=O)NC(N)=O (centres undefined)	-2	-4
O=C(NCC1(N2CCCCC2)CCCCC1)c1ccc(N2CCCC2=O)cc1	-2	2
N#CCCNS(=O)(=O)c1ccc(C(=O)NCC23CC4CC(CC(C4)C2)C3)cc1	10	6
COc1ccc(Cl)cc1-n1c(C)cc(C(=O)OCC#N)c1C	17	11
O=C(COC(=O)c1ccc(O)cc1)Nc1cccc(I)c1	20	12
COc1ccc(S(=O)(=O)N(C)C(C)C(O)c2ccccc2)cc1 (centres undefined)	16	6
Cc1cc2nc(N3CCCC(C(F)(F)F)C3)c3ccccc3n2n1 (centres undefined)	6	0
CC1CCc2sc(-c3nnc(SCC(=O)c4ccc(NS(C)(=O)=O)cc4)o3)cc2C1 (centres undefined)	22	12
O=C1CCCCC1Sc1nnc2n(-c3ccccc3)c(=O)c3ccccc3n12 (centres undefined)	10	-1
CN(CC(=O)NCCc1ccc(S(N)(=O)=O)cc1)c1ccccc1	14	0
Cc1cc(C(=O)CN(Cc2ccco2)S(=O)(=O)/C=C/c2ccccc2)c(C)n1C	2	0
O=C(Cc1ccc2c(c1)OCCO2)Nc1ccc(OC(F)(F)F)cc1	4	11
Cc1ccc2c(CC(=O)NCC(=O)OCc3ccccc3)coc2c1	13	18
CN(C)C(=O)COC(=O)c1ccccc1C(=O)c1ccccc1	12	2
Cc1c(C(=O)c2ccc3c(c2)OCCO3)oc2ccc(Cl)cc12	12	6
Cn1ccnc1SCC(=O)NC1CCCc2ccccc21 (centres undefined)	5	6
Cc1cc(C)n2nc(SCC(=O)N3CCC(C)CC3)nc2n1	6	8
CCc1ccc(-c2nn(Cc3ccccc3)cc2CN2CCN(CC(=O)N3CCOCC3)CC2)cc1	17	-2
CC1Cc2ccccc2N1CC(=O)Nc1ccccc1Cl (centres undefined)	12	-3
c1ccc(CN2CCC(=NNc3nncc4ccccc34)CC2)cc1	30	-24
N#Cc1c(=O)c2nc(NCCc3ccccc3)ncc2n2c(=O)c3cc(Br)ccc3[nH]c12	26	8
COc1cc(-c2nnc(SCc3cc(=O)oc4ccc5ccccc5c34)o2)cc(OC)c1OC	16	8
N#Cc1ccc(OCc2nnc3n2CCC3)cc1	14	12
Cc1c(C(=O)OCC(=O)N2CCCC2)oc2ccccc12	10	15
Clc1cc2c(c3ncccc13)OCN(CCc1ccccc1)C2	-24	-56
O=c1ncc(F)c[nH]1	-2	-4
O=C(O)CCN(Cc1ccccc1)S(=O)(=O)c1cccc(C(F)(F)F)c1	14	6
Cc1cc(NC(=O)OCC(F)(F)F)no1	18	10
CCCCN1C(=O)c2ccc(C(=O)OC3CCCCC3=O)cc2C1=O (centres undefined)	6	4
CC1=CC(OC(=O)Nc2ccc(Cl)cc2)CC(C)(C)C1 (centres undefined)	18	19
O=C(NC(=S)Nn1cnnc1)c1ccc(Cl)c(S(=O)(=O)N2CCCCCC2)c1	20	20
CCOc1cc(CNCc2nnc3ccccn23)ccc1OCC(=O)N1CCCCC1	-6	4
CCC1(C)NC(=O)N(/N=C/c2ccc(OCC(=O)N3CC(C)OC(C)C3)c(OC)c2)C1=O (centres undefined)	10	10
Cc1csc(=O)n1CCC(=O)OCC(=O)c1ccc2ccccc2c1	12	13
CC1CCN(CC(=O)c2cccs2)CC1	22	9
COCC(C)NCc1cc(=O)oc2cc(C)c(C(C)C)cc12 (centres undefined)	44	10
c1ccc(N=C2NN=C(c3ccccc3)CS2)cc1	41	14
Cc1ccc(Cn2c(SCC(=O)N(C)C)nc3ccccc3c2=O)cc1	28	-2
CC(Nc1ccccc1CO)C(=O)N1CCOCC1 (centres undefined)	10	10
CCOC(=O)c1oc2ccccc2c1CSc1nnc(-c2ccc(C)cc2)n1N	11	4
Cc1cc(-n2c(C)cc(CNC3CC(C)(C)NC(C)(C)C3)c2C)no1	7	2
COc1ccc(-n2c(C)cc(-c3csc(/N=C/N(C)C)n3)c2C)cc1	22	10
COc1ccc(N2CCN(C=C3C(=O)N(C)C(=O)N(C)C3=O)CC2)cc1	-30	-30
CCSc1nnc(-c2ccccc2)n1Cc1ccc2c(c1)OCO2	14	-1
O=C(Nc1nn2cnnc2s1)C1CCCC1	6	9
Cc1nn(-c2ccccc2)c(C)c1C(O)c1nnc(-c2ccccc2)o1 (centres undefined)	18	9
O=c1cnn(-c2ccccc2)c(-c2ccccc2)c1	20	10
Cc1ccc(N2C(=O)N(CCN3C(=O)c4ccccc4C3=O)C(=O)C2C)cc1 (centres undefined)	12	16
Nc1ccccc1N=C(c1ccccc1)c1c[nH]n(-c2ccccc2)c1=O	20	4
O=C(CCc1ccc(S(=O)(=O)N2CCOCC2)cc1)N/N=C/c1ccco1	4	2
CN(C)S(=O)(=O)c1cccc(COC(=O)c2ccc(Cl)cc2O)c1	12	6
O=C(COC(=O)CSc1ccc(F)cc1)NC1CC1	12	0
CCOc1ccccc1C(=O)NCc1ccc(OC)c(C(=O)OC)c1	10	-7
CC(C)Cn1c(Cc2ccccc2)nc2ccccc21	6	2
Cc1cc(C=NCCO)c(C)n1-c1cc(Cl)ccc1Cl	22	12
CC(C#N)Sc1nnc(-c2ccco2)n1C1CCCCC1 (centres undefined)	32	7
Cc1cc2occ(CC(=O)OCC(=O)Nc3sccc3C#N)c2cc1C	12	10
CCN(CC)CCOC(=O)C1(C2CCCCC2)CCCCC1	-2	4
CCCN=C1NC(=O)C(CC(=O)Nc2ccccc2Cl)S1 (centres undefined)	10	4
Cn1c(N)c(C(=S)NC(=O)C(C)(C)C)c(=O)[nH]c1=O	50	16

Continued; it opens with the 2 that closed the last part.
SMILES	BmaI1	BmaI1 counterscreen
CCCN=C1NC(=O)C(CC(=O)Nc2ccccc2Cl)S1 (centres undefined)	10	4
Cn1c(N)c(C(=S)NC(=O)C(C)(C)C)c(=O)[nH]c1=O	50	16
CC(C)Cn1c(SCc2nnc(-c3ccccc3)o2)nnc1-c1ccccc1F	16	10
CC1=C/C(=N\NC(=S)Nc2ccc(F)cc2)CC1	-21	-22
O=C(Cn1cnc2ccccc21)NN=C1CCCCCC1	-44	-8
CN(CC(O)COCc1ccccc1F)C1CCCCC1 (centres undefined)	4	1
CCN(CC)S(=O)(=O)c1cccc(C(=O)OCC(=O)Nc2cccc(C#N)c2)c1	2	-6

Five entries drawn at random from the list so far:
SMILES	BmaI1	BmaI1 counterscreen
CC(C)Cn1c(SCc2nnc(-c3ccccc3)o2)nnc1-c1ccccc1F	16	10
O=C(Cn1cnc2ccccc21)NN=C1CCCCCC1	-44	-8
CCN(CC)S(=O)(=O)c1cccc(C(=O)OCC(=O)Nc2cccc(C#N)c2)c1	2	-6
CN(CC(O)COCc1ccccc1F)C1CCCCC1 (centres undefined)	4	1
CC1=C/C(=N\NC(=S)Nc2ccc(F)cc2)CC1	-21	-22

Source: PubChem
